H5N1 antiviral = MDCK cell protection from H5N1 avian flu | 96,000 compounds, 0.07% hits | cytopathic effect, luminescence, 72 h; hits give high values; no value below 0 was filed and about half of the inactive calls have no number; reference of the scale not given here | inhibition, % at 50 µM; in the data active means inhibition above about 25%
An asterisk follows results filed as active; i = inactive. These rows are one share of the data, so the mix of outcomes need not match the whole.

SMILES | H5N1 antiviral
Cc1cc(C(=O)N/N=C/c2cc(Br)ccc2OC(=O)c2ccccc2)n[nH]1 | i
O=C(CCCCCN1C(=O)c2ccccc2C1=O)Nc1ccc(S(=O)(=O)N2CCCCC2)cc1 | 1.8
CSc1nc2ccccc2cc1/C=C(\C#N)c1cccc(Cl)c1 | 1.0
CCNC(=O)C1CCN(S(=O)(=O)c2ccc(F)cc2)CC1 | i
CSCCC(NS(=O)(=O)c1ccc(Cl)cc1)C(=O)OCC(=O)N1CCOCC1 (stereo not drawn) | i
O=C(c1ccccc1S(=O)(=O)NCc1ccccc1)N1CCCCC1 | 0.9
COc1ccc(-c2nnc3sc(-c4ccco4)nn23)cc1OC | 1.9
O=C(c1csc2ccccc12)N1CCN(c2ccc(Cl)c(Cl)c2)CC1 | i
CCN(CC)CCCN(C(C)=O)c1nc(-c2cc(OC)ccc2OC)cs1 | i
COc1ccc(C2CC(c3ccccc3)=NN2C(=O)c2cccs2)cc1 (stereo not drawn) | 0.1
Cc1ccccc1Nc1nnc(C)c(=O)n1N | 0.3
O=C(NC1CCCCCC1)C1CCCN(S(=O)(=O)c2cccs2)C1 (stereo not drawn) | 2.3
Cn1c(=O)cc(OCCCC(=O)N2CCCCC2)c2ccccc21 | 2.3
CCc1nc2ccccc2c(C(=O)OCC(=O)Nc2cccc(S(=O)(=O)N3CCOCC3)c2)c1C | 6.3
O=C(Cc1ncc(C(F)(F)F)cc1Cl)N1CCN(c2ccc(F)cc2)CC1 | 0.5
CCOC(=O)N1CCN(CCC(=O)Nc2ccc(OC(F)(F)F)cc2)CC1 | 1.4
Fc1ccc(-c2nc3nc4ccccc4nc3n2Cc2ccco2)cc1 | 2.7
CC(=O)c1cc2c(cc1NC(=O)CSc1nnc(C)s1)OCO2 | 1.8
CC(C)(C)c1[nH]c2ccccc2c1/C=N/O | i
Cc1ccc(-c2nn(-c3ccccc3)cc2/C=N/NC(=O)c2ccc3c(c2)OCO3)cc1 | 3.7
CCOC1(OCC)N=C(N)C2(C#N)C(c3ccc(NC(C)=O)cc3)C12C#N (stereo not drawn) | 2.1
COc1cccc(C(=O)NCc2ccc(N3CCN(C(=O)OC(C)(C)C)CC3)cc2)c1 | 1.3
N#Cc1ccc(-c2ccco2)nc1SCC(=O)c1ccc(Cl)cc1 | i
COc1ccccc1-c1nc(C#N)c(N2CCN(C(c3ccccc3)c3ccccc3)CC2)o1 | i
CN(C)CCN(Cc1ccccc1)c1nccc(N(C)C)c1C#N | 1.3

No new results follow: entries from further up.
SMILES | H5N1 antiviral
COc1ccccc1-c1nc(C#N)c(N2CCN(C(c3ccccc3)c3ccccc3)CC2)o1 | i
CN(C)CCN(Cc1ccccc1)c1nccc(N(C)C)c1C#N | 1.3

The list goes on:
SMILES | H5N1 antiviral
Cc1sc(NC(=O)c2ccco2)c(C(c2cccnc2)N2CCN(C)CC2)c1C (stereo not drawn) | 1.1
O=C(Nc1cccc(Cl)c1)N(CCN1CCOCC1)Cc1ccccc1F | 0.1
COc1ccc(NC(=O)CSc2nnc(-c3ccccc3C)n2N)cc1OC | 0.2
CS(=O)(=O)N1CCN(c2ccc(NC(=O)c3ccc(-c4ccc(Cl)cc4)o3)cc2)CC1 | 1.3
O=C(NCc1cccs1)C1CCC(CNS(=O)(=O)c2cccs2)CC1 (stereo not drawn) | 0.1
O=C(CCCn1c(=O)[nH]c2ccccc2c1=O)NC1CCCCCC1 | i
COc1ccc(-c2ccc(C3C(C#N)=C(N)Oc4n[nH]c(C)c43)o2)cc1 (stereo not drawn) | 1.1
O=C(Nc1nnc(C23CC4CC(CC(C4)C2)C3)s1)c1ccco1 | 1.9
CCN1C(=O)C2C(c3ccccc3F)NC(Cc3ccc(O)cc3)(C(=O)OC)C2C1=O (stereo not drawn) | i
COc1cccc(NC(=O)Cn2nnc(C(=O)Nc3ccccc3)c2N)c1 | i
CCOc1ccc(C2=Cc3cc(OC)c(OC)cc3C(=C(Cl)Cl)O2)cc1 | i
CCCCOC(=O)C1Cc2ccccc2C(=O)O1 (stereo not drawn) | 0.8
CCCCC(=O)Nc1ccc2c(c1)nc1n2CCSC1 | i
CC(/C=N\N1CCN(c2ccc(Cl)cc2)CC1)=C\c1ccccc1 | i
Cc1nnc(SCC(=O)OC2CC(C)CCC2C(C)C)[nH]c1=O (stereo not drawn) | i
Cc1ccc(C(=O)NCc2cccs2)cc1S(=O)(=O)N1CCCCC1 | 1.0
O=C(NCCO)c1ccccc1O | i
CCOC(=O)N1CCN(C(=O)NC2CCCCC2)CC1 | i
Cc1ccc(-c2csc3nnc(SCC(=O)Nc4cccc(C)n4)n23)cc1 | i
Cc1cc(Oc2ccc(C(C)(C)C)cc2)nc(N2CCOCC2)n1 | i
CC(C)(C)c1ccc(C2C3=C(CCCC3=O)NC3=C2C(=O)c2ccccc23)cc1 (stereo not drawn) | 0.4
Cc1cc2c(c(C)nn2-c2ccccc2)c(=O)o1 | 0.1
CCOC(=O)Cc1csc(NC(=O)CCN2C(=O)c3ccccc3C2=O)n1 | 0.1
Oc1ccc(Br)cc1/C=N/N1CCN(Cc2ccccc2)CC1 | i
O=C1c2cccnc2C(O)N1Cc1cccs1 (stereo not drawn) | i
Additional results.
SMILES | H5N1 antiviral
Cc1sc2nc(SCC(=O)NCc3ccco3)[nH]c(=O)c2c1C | 1.2
COc1ccc(NC(=O)Nc2cccc(C(=O)N3CCOCC3)c2)cc1OC | i
COc1ccc(C(=O)CSc2nc(C)cc(=O)[nH]2)cc1 | i
CCn1c(O)c(/C=N/n2cnnc2)sc1=S | i
CCOC(=O)CSc1n[nH]c(NC(=O)c2cccc(C(F)(F)F)c2)n1 | 0.3
CC(NC(=O)c1ccc(S(=O)(=O)N(C)C)cc1)c1ccccc1 (stereo not drawn) | 26.5*
O=C(CCN1C(=O)/C(=C/c2cccc(Br)c2)SC1=S)NNC(=O)c1cccnc1 | i
C=C(C)C1CC=C(CN2CCC(O)CC2)CC1 (stereo not drawn) | i
COc1ccc2nc(NC(=O)c3cccc(OCc4c(C)noc4C)c3)sc2c1 | i
Cc1ccc(NC(=O)COC(=O)C2CC2C)c(S(=O)(=O)N2CCCCC2)c1 (stereo not drawn) | i
Cc1ccc(N(CC(=O)Nc2cc(Cl)ccc2Oc2ccccc2)S(C)(=O)=O)c(C)c1 | i
O=c1cc(CN2CCN(c3ccc(F)cc3)CC2)c2cc3c(cc2o1)CCCC3 | 0.8
CCOc1ccc(OCCOCCN2CCOCC2)cc1 | i
COc1cc2c(cc1NC(=O)c1cccnc1)CCCC2 | i
O=C(CN1CCC(C(=O)c2ccc(F)cc2)CC1)Nc1ccccc1 | 1.1
O=S(=O)(c1cccs1)N1CCc2ccccc21 | i
CCOC(=O)C1Sc2[nH]c(=O)sc2C(c2ccc(Cl)cc2)C1C(=O)OCC (stereo not drawn) | 0.6
COc1ccc(NC(=O)CN2CCN(CC(=O)Nc3ccccc3Cl)CC2)cc1 | i
O=S(=O)(NCCc1ccccc1)c1cccc2nsnc12 | 2.8
CC1(C)CC(=O)C=C(NNC(=O)c2ccccc2O)C1 | 0.2
O=c1oc2cc(O)ccc2c2c1CCCC2 | i
COc1ccc(-n2c(CNC(=O)c3cc(OC)c(OC)c(OC)c3)n[nH]c2=S)cc1 | 0.3
COc1cc2nc(C3CCC3)n(NC(=O)COc3ccccc3)c(=O)c2cc1OC | i
CCNC(=S)N/N=C/c1cccs1 | 1.7
Cc1ccc(Nc2cc(=O)n(C3CCCCC3)c(=O)[nH]2)cc1C | i
New compounds follow.
SMILES | H5N1 antiviral
O=C(Nc1nnc(C2CCCCC2)s1)c1ccco1 | 0.4
O=C(CC1OC(=O)c2ccccc21)c1ccco1 (stereo not drawn) | i
Cc1nonc1NC(=O)OC1CCCCC1 | i
Cc1cc(C)n2nc(SCc3nnc(SCc4ccccc4Cl)s3)nc2n1 | 2.5
CS(=O)(=O)N(CC(=O)N1CCN(Cc2ccc3c(c2)OCO3)CC1)Cc1ccc(Cl)cc1 | 2.1
Cc1csc(NC(=O)c2cc3c(s2)CCC3)n1 | i
O=C(CCC1CCCC1)NCc1cccs1 | 0.3
CN(C)C(=O)N1CCC(C(=O)NC2CCCCCCC2)CC1 | i
CCCCSc1nc2c(cnn2-c2ccc(C)c(C)c2)c(=O)[nH]1 | 3.0
O=C(O)CSc1nnc(CNc2ccc(Cl)cc2)n1Cc1ccccc1 | i
CCCOc1ccc(C2C(=O)N(C3CCCCC3)CC(=O)N2C2CC2)cc1OC (stereo not drawn) | i
COc1cc(S(=O)(=O)N2CCN(Cc3ccc4c(c3)OCO4)CC2)c(C)cc1C | 0.7
O=C(NNC(=S)NC(=O)c1ccccc1[N+](=O)[O-])c1ccccc1[N+](=O)[O-] | i
CCOC(=O)N1CCN(C(=O)CN(c2ccc3c(c2)OCO3)S(C)(=O)=O)CC1 | i
O=C1c2ccccc2C(=O)N1CCCc1nc2ccccc2c(=O)n1CCCn1ccnc1 | 0.2
CCn1c(Cc2ccccc2)nnc1SCC(=O)Nc1ccccc1 | i
COc1ccc(/C=N/O)cc1COc1ccc(NC(C)=O)cc1 | 3.7
CCOC(=O)COc1c(OC)cc(Cl)cc1C1Nc2ccccc2C(=O)N1c1ccc(F)cc1 (stereo not drawn) | 0.1
Cc1ccccc1OCc1nnc2n1CC(C)S2 (stereo not drawn) | 1.8
COc1ccc(C2SCC(=O)Nc3c2c(C)nn3C2CCOC(C)(C)C2)cc1OC (stereo not drawn) | i
CCSc1nnc(NC(=O)c2cccc3ccccc23)s1 | 0.5
CCOC(=O)/C(=C\c1cccnc1)C(=O)c1cc(C(C)=O)c(Nc2ccccc2)s1 | i
Cc1c(NC(=O)COC(=O)C2CC3C=CC2C3)c(=O)n(-c2ccccc2)n1C (stereo not drawn) | i
O=C(NC1CCCCC1)C(Cc1ccccc1)N1C(=O)C2C3CCC(C3)C2C1=O (stereo not drawn) | i
O=C(CCN1C(=O)COc2ccccc21)N1CCN(c2ccccn2)CC1 | i

A draw from above in order of count of non-hydrogen atoms, smallest number first:
SMILES | H5N1 antiviral
CN(C)C(=O)N1CCC(C(=O)NC2CCCCCCC2)CC1 | i
O=C(O)CSc1nnc(CNc2ccc(Cl)cc2)n1Cc1ccccc1 | i
Cc1c(NC(=O)COC(=O)C2CC3C=CC2C3)c(=O)n(-c2ccccc2)n1C (stereo not drawn) | i

Exported comma-delimited: part of the list above
SMILES,H5N1 antiviral
COc1ccc(/C=N/O)cc1COc1ccc(NC(C)=O)cc1,3.7
CCOC(=O)COc1c(OC)cc(Cl)cc1C1Nc2ccccc2C(=O)N1c1ccc(F)cc1 (stereo not drawn),0.1
Cc1ccccc1OCc1nnc2n1CC(C)S2 (stereo not drawn),1.8
COc1ccc(C2SCC(=O)Nc3c2c(C)nn3C2CCOC(C)(C)C2)cc1OC (stereo not drawn),i
CCSc1nnc(NC(=O)c2cccc3ccccc23)s1,0.5

Next compounds.
SMILES | H5N1 antiviral
O=C(COc1ccc(S(=O)(=O)N2CCCC2)cc1)NCc1ccco1 | 0.2
CCOC(=O)c1cnn(-c2nc(-c3ccccc3F)cs2)c1C(F)(F)F | i
COC(=O)C(C)Sc1ccc2nnc(-c3ccc(F)cc3)n2n1 (stereo not drawn) | i
O=C(NCc1ccoc1)c1ccc(NC(=O)c2ccccc2Cl)cc1 | i
CCOC(=O)c1[nH]c2ccc(F)cc2c1NC(=O)CCN1CCSCC1 | i
O=C(NCCCN1CCCC1=O)c1ccc2c(c1)OCO2 | i
Cc1cccc(-n2c(N)cc(=O)nc2SCC(=O)NC2CCCCC2)c1 | i
CCCCc1c(O)nc(SCC(=O)c2ccccc2)[nH]c1=O | 0.3
CCOC(=O)c1c(NC(=O)Cc2cccs2)sc(C(=O)NC2CCCCC2)c1C | i
O=C(Oc1ccc(Br)cc1)c1cncc(Br)c1 | 0.1
N#C/C(=C(/O)c1ccco1)c1nc2ccccc2s1 | i
COc1ccc(C(=O)N2CC3(CC(c4cccc([N+](=O)[O-])c4)=NO3)C[C@H]2C(=O)NCC(N)=O)cc1 (stereo partly drawn) | i
CSc1nsc(SC)c1NC(=O)OCCc1ccccn1 | 2.1
Nn1cc(-c2ccccc2)nc1SCC(=O)NC1CCS(=O)(=O)C1 (stereo not drawn) | i
Cn1c(O)c(/C=N/c2ncccn2)c(=O)n(C)c1=O | 1.5
CCCc1cc(C(=O)O)c2ccccc2n1 | i
COc1ccc(CCNC(=O)c2nnn(-c3cc(C)cc(C)c3)c2N)cc1OC | i
CCCSc1nnc(C(C)C)n1N | i
COc1ccc(S(=O)(=O)N(C)CC(=O)Nc2ccc(F)cc2)cc1 | i
Cc1cc(C)n(C(=O)CCCCCCCCC(=O)n2nc(C)cc2C)n1 | i
CN(C)CCNc1oc(-c2ccccc2F)nc1C#N | i
CC(C)Cn1c2ccccc2c2cc(C(=O)O)ccc21 | i
CCOC(=O)c1[nH]c(C)c(C(=O)Nc2ccc(C)c(F)c2)c1C | i
O=C(O)COc1ccccc1C1C2C(=O)N(c3ccccc3)C(=O)C2ON1c1ccccc1 (stereo not drawn) | 0.9
O=C(Cn1cc(C(=O)c2cccs2)c2ccccc21)NC1CCCCC1 | i

Filtered by structure, the entries above containing bromine
SMILES | H5N1 antiviral
Cc1cc(C(=O)N/N=C/c2cc(Br)ccc2OC(=O)c2ccccc2)n[nH]1 | i
Oc1ccc(Br)cc1/C=N/N1CCN(Cc2ccccc2)CC1 | i
O=C(CCN1C(=O)/C(=C/c2cccc(Br)c2)SC1=S)NNC(=O)c1cccnc1 | i
O=C(Oc1ccc(Br)cc1)c1cncc(Br)c1 | 0.1

Next records follow:
SMILES | H5N1 antiviral
CC1CCCN(C(c2cccs2)c2nnnn2Cc2ccccc2)C1 (stereo not drawn) | 1.0
Cc1cccc(-n2c(SCc3cc(=O)n4c(C)cccc4n3)nc3[nH]ncc3c2=O)c1 | 12.8
CN1CCNC(=O)C1CC(=O)O (stereo not drawn) | i
Cc1ccc(-c2c3c(=O)n(C)c(=O)n(C)c3cn2CCCN2CCOCC2)cc1 | 0.7
Cc1cc(C(=O)CSc2nncs2)c(C)n1-c1ccc2c(c1)OCO2 | 0.6
C/C(Cn1nnc([N+](=O)[O-])n1)=N\NC(=O)c1ccccc1 | i
c1ccc2cc(OCCN3CCCC3)ccc2c1 | i
COc1ccccc1NC(=O)Cc1nn(C)c(=O)c2ccccc12 | 1.8
